High-throughput results from PubChem.
Tgondii IFNg: blocks Toxoplasma gondii growth in the presence of IFN-gamma. Toxoplasma gondii growth in IFN-gamma-treated host cells; stronger effect = lower value; reference of the scale not given here. activity change, negative = inhibition, %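 (about 20 µM by stock and volumes)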. 3.8% of 69,000 active. AID 1259416;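 active = below -70%; inconclusive = fit judged invalid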;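 note: host cells are HeLa cells infected with Toxoplasma gondii; parasite growth read as luciferase light; one replicate is shown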
Starred values were filed as active, the others as inactive; i = inactive; ? = inconclusive. Not all compounds are listed; rates above refer to the full screens.

entry | molecule | Tgondii IFNg
1 | COc1cccc(NC(=O)Cn2c(=O)cc(C(=O)N3CCCCC3)c3ccccc32)c1 | 3
2 | O=C1CCC2(CCCO2)CCN1Cc1ccc(C(F)(F)F)nc1 (stereo not given) | 2
3 | CC(C)Cc1nc(CNC(=O)c2cnc(-c3ccccc3)nc2)no1 | -17
4 | Cc1cc(NC(=O)c2ncoc2-c2ccc(F)cc2)n(Cc2ccccc2)n1 | ?
5 | COC(=O)CCn1cc([C@@H]2C[C@H](NC(C)=O)C[C@H](C3CCCCC3)O2)cn1 | -19
6 | CC(=O)Nc1ccc2nc(-c3c(-c4ccccc4)ncn3CCCO)ccc2c1 | 0
7 | CCn1cc(CC(=O)N2CCC(N3CCCCC3)CC2)c2cccnc21 | -5
8 | COc1cccc(OC)c1CNC(=O)C(C)n1cnc2ccccc21 (stereo not given) | 3
9 | COc1cccc(-c2nc3c(s2)CN(S(=O)(=O)c2cccc(C)c2)CC3)c1 | -105*
10 | Cc1ccc(S(=O)(=O)NCCc2sc(-c3ccccc3)nc2C)cc1 | i
11 | CCOC(=O)c1cc(C2CC2)nc2c1c(=O)n(Cc1nc(-c3cccc(C)c3)oc1C)c(=O)n2C | -43
12 | CC(=O)N1CCC(N(C)Cc2cc(C(C)(C)C)n[nH]2)CC1 | -27
13 | CN1C(=O)c2cc(NC(=O)Nc3ccc(Cl)cc3)ccc2OC[C@H]2O[C@@H](CC(=O)NCCN3CCCCC3)CC[C@H]21 | -44
14 | CNC(=O)CN1C(=O)CCC12CCCN(Cc1cnc[nH]1)C2 (stereo not given) | 277
15 | O=C(CC1CCc2ccccc21)Nc1ccccc1-c1nn[nH]n1 (stereo not given) | -52
16 | COc1ccc(S(=O)(=O)Nc2ccc(S(=O)(=O)Nc3cc(C)on3)cc2)cc1 | -32
17 | Cc1cc(CC(=O)N2CCC(c3n[nH]c(=O)n3Cc3ccccc3)CC2)on1 | 19
18 | Cc1ccc(S(=O)(=O)N2C[C@@H]3OCCN(Cc4cnn(C)c4)[C@H]3C2)cc1 | 2
19 | COc1ccc2oc(CNC(=O)c3cccc4ccnn34)nc2c1 | 13
20 | COc1ccccc1-c1nc(Cn2nnc(C(=O)Nc3ccc(Br)cc3)c2C)c(C)o1 | 34
21 | Cc1nc(CN)cc(N2C[C@H]3CC[C@H]2C3)n1 | -17
22 | Cc1ccc(Cl)c(CN2CCC(Cc3nnc(CO)n3C)CC2)c1F | -8
23 | CN(C)C(=O)CNC(=O)c1nc2c(s1)CCCN2Cc1ccccc1 | 5
24 | O=C1C[C@H]2CC[C@@H](CN1)N2C(=O)c1ccc(-c2noc(C3CC3)n2)cc1 | -9
25 | CN(C)C(=O)c1cccc(-c2ccc(C3[C@H]4CNC[C@@H]3N4Cc3cccnc3)cc2)c1 (stereo not given in full) | 10
26 | COC(=O)c1c(NCc2ccccc2C(F)(F)F)c2cccc(Cl)c2[nH]c1=O | -2
27 | FC(F)(F)c1cccc(CN(Cc2ccccn2)CC2CCCO2)c1 (stereo not given) | -10
28 | CC(C)c1cc(C(=O)NCc2nc(Cc3cccs3)no2)n(C)n1 | -83*
29 | CC(C)c1cc(C2CCN(C(=O)CC34CC5CC(CC(O)(C5)C3)C4)CC2)[nH]n1 | -7
30 | Cc1ccc(-c2nc(Cn3nnc(-c4nc(-c5cccc(C(F)(F)F)c5)no4)c3C)c(C)o2)cc1 | 4

Sorted by count of non-hydrogen atoms (largest number first): 5 of the compounds above
entry | molecule | Tgondii IFNg
1 | COc1cccc(NC(=O)Cn2c(=O)cc(C(=O)N3CCCCC3)c3ccccc32)c1 | 3
6 | CC(=O)Nc1ccc2nc(-c3c(-c4ccccc4)ncn3CCCO)ccc2c1 | 0
10 | Cc1ccc(S(=O)(=O)NCCc2sc(-c3ccccc3)nc2C)cc1 | i
15 | O=C(CC1CCc2ccccc21)Nc1ccccc1-c1nn[nH]n1 (stereo not given) | -52
2 | O=C1CCC2(CCCO2)CCN1Cc1ccc(C(F)(F)F)nc1 (stereo not given) | 2

The main list resumes, repeating the two entries before the break.
entry | molecule | Tgondii IFNg
29 | CC(C)c1cc(C2CCN(C(=O)CC34CC5CC(CC(O)(C5)C3)C4)CC2)[nH]n1 | -7
30 | Cc1ccc(-c2nc(Cn3nnc(-c4nc(-c5cccc(C(F)(F)F)c5)no4)c3C)c(C)o2)cc1 | 4
31 | O=C(NCCc1csc(-c2ccc(Cl)cc2)n1)c1cc2ccccc2oc1=O | 0
32 | COCCN1CCN(CCn2cccn2)c2nc(C)ccc2C1 | 0
33 | O=C(CCn1nnc2cc(-c3noc(-c4cccc5[nH]ccc45)n3)ccc21)N1CCCC1 | 21
34 | CCN(Cc1noc(C)n1)C(=O)c1cc(COc2cc(C)ccc2C)on1 | -7
35 | CCCSCCCNC(=O)c1ccc(-c2nc(CN3CCN(c4ccccc4)CC3)c(C)o2)cc1 | -40
36 | O=C(Cn1ncc2c(N3CCCCC3)ncnc21)N1CCCC1 | 309
37 | Cc1cc(C(=O)Nc2ccccc2-c2nc(CNC(=O)c3ccc(F)cc3F)c(C)o2)c(C)o1 | 2
38 | CCOC(=O)CNC(=O)Nc1ccc(-c2nc(-c3cc(C)ccc3C)co2)cc1 | 32
39 | CCS(=O)(=O)N1CCC2(CC(Nc3cnccn3)CO2)C1 (stereo not given) | 434
40 | Cc1noc(-c2cc(=O)n(CC(=O)NCc3ccccc3F)c3ccccc23)n1 | 3
41 | COCCN(Cc1ccsc1)C(=O)c1ccc2cccc(F)c2n1 | -1
42 | Cc1cc(C(=O)N2CCC(O)(CN(C)C)C2)sc1-c1ccccc1 (stereo not given) | 2
43 | CN(Cc1ccccc1)Cc1cc(C(=O)NC2C=CS(=O)(=O)C2)no1 (stereo not given) | 6
44 | CCCc1cc(-c2ccccc2C(C)=O)nc(C)n1 | 81
45 | C=CCn1c(=O)c(C(=O)NCc2ccc(C)cc2)c(O)c2ccccc21 | 139
46 | Cc1cc(F)ccc1NC(=O)CCNC(=O)c1c(O)cccc1O | -1
47 | OCC1(CCc2ccccc2)CCN(c2nccc3occc23)CC1 | -43
48 | C[C@@H]1CN([C@@H](C)CO)C(=O)c2cc(NC(=O)NC3CCCCC3)ccc2O[C@@H]1CN(C)S(C)(=O)=O | 36
49 | O=S(=O)(NCCC1=CCCCC1)c1ccc(S(=O)(=O)NC2CCCCC2)cc1 | -84*
50 | O=C(C[C@@H]1CC[C@@H]2[C@H](COC[C@@H](O)CN2C(=O)Nc2cccc(F)c2)O1)NCCCN1CCOCC1 | -15
51 | CCOCC1c2c(cnn2C)CCN1C(=O)/C=C/c1cccs1 (stereo not given) | -7
52 | Cc1ccc(C)c(C(NC(=O)c2cc(C)nc(N)n2)c2cccnc2)c1 (stereo not given) | -8
53 | O=C(NCCc1nc(-c2cccnc2)n[nH]1)NC1CCCCC1 | 217
54 | CCCCc1ncc(CN2CCN(S(=O)(=O)c3ccccc3)CC2)[nH]1 | 10
55 | CCOC(=O)c1nc(C)sc1-c1ccnn1C(=O)c1ccc(OC)cc1 | 3
56 | CC(C)c1nc(CCN(C)C(=O)c2nc3c(s2)CCCC3)no1 | 2
57 | CCCn1c(C)cc2cc(NC(=O)CCN3C(=O)NC4NC(=O)NC43)ccc21 (stereo not given) | 3
58 | CC(C)c1n[nH]c2c1CN(C(=O)c1cccc(C#CC(C)(C)O)c1)CC2 | 3
59 | CN(Cc1ccc2c(c1)OCCO2)Cc1cc(-c2ccccc2)no1 | -1
60 | CCn1cc(CN2CCCN(c3ccnc(C)c3)CC2)cn1 | -2
61 | Cc1ccc(C(=O)N2CCc3c([nH]c4ccccc34)C2c2cccc(C)c2)cc1 (stereo not given) | 207
62 | CCn1ncc(CN2CCCC(C(=O)c3cccc(C(F)(F)F)c3)C2)c1C (stereo not given) | 4
63 | O=C(CN1CCC(O)(c2cccnc2)CC1)Nc1ccc(F)cc1 | 2
64 | CC(=O)N1CC2(CCN(C(=O)c3ccc(N(C)C)cc3)CC2)CC1C(=O)O (stereo not given) | 2
65 | CC(=O)N1CCC(C(=O)NCc2ccccc2)(N(Cc2ccccc2)C(=O)c2ccccc2Br)CC1 | -7
66 | CCn1ccnc1CN1CCc2[nH]cnc2C1c1cccn1-c1ncccn1 (stereo not given) | -2
67 | COC(=O)CC1=NN(c2nc(C)cc(C)n2)C(=O)C1 | 16
68 | Cc1ccc(Cl)cc1NC(=O)N1CCC2(CC1)Nc1ccccc1-n1cccc12 | 238
69 | COc1nc2cc(C)ccc2cc1CN(CCc1ccccc1)Cc1ccncc1 | 12
70 | N#Cc1ccc(-c2ccc3c(c2)[C@@H]2[C@@H](CCN2C(=O)C2CCCCC2)[C@@H](CO)N3)cc1 | -63
71 | O=C(NCc1nc(-c2ccccc2)no1)c1cccc(N2CCCC2=O)c1 | 41
72 | COc1ccc(C)cc1NC(=O)NCC(c1cccnc1)c1cn(C)c2ccccc12 (stereo not given) | i
73 | CS(=O)(=O)c1ccc(C(=O)Nc2cnc3n2CCCC3)cc1 | -10
74 | CN(C)c1ncc(-c2ccc(N)nc2)c(C2CCN(C(=O)c3ccc(F)cc3)CC2)n1 | -62
75 | CCOC(=O)c1ccc(-n2c(=S)[nH]c3ccccc32)cc1 | 221
76 | Cc1ccoc1C(=O)N1CCc2c(nnn2C)C1COCC1CC1 (stereo not given) | 1
77 | COc1ccc(OC)c(CNc2nc(-c3ccc(Cl)cc3)nc3ccccc23)c1 | -33
78 | CC(C)(O)C#Cc1cccc(-c2nc(C(=O)O)cc3c2[C@H](CCO)N(S(=O)C(C)(C)C)C3)c1 (stereo not given in full) | 46
79 | COc1ccc(OC)c(CNC(=O)c2ccc(-c3nc(CN4CCc5ccccc54)c(C)o3)cc2)c1 | 66
80 | COc1cccc(CN2[C@H](CO)[C@H](c3ccccc3)C23CN(C(=O)C2CCCCC2)C3)c1 | -26
81 | CCN(CC)c1ccc2cc(-c3nc4ccccc4[nH]3)c(=O)oc2c1 | 87
82 | COc1cccc(CN(C(=O)c2ccc(C)cc2)C2(C(=O)NCc3ccccc3)CCN(C(C)=O)CC2)c1OC | -93*
83 | O=C(O)CN1CCC2(CCc3cc(-c4ccoc4)ccc32)CC1 | 2
84 | O=S(=O)(c1cccs1)N1CCC2(CC1)CNc1ccccc12 | -10
85 | Cc1cc(NC(=O)CCc2nnc(C(C)C)o2)n(C2CCCC2)n1 | 0
86 | O=C(C[C@H]1CC[C@H]2NC[C@@H](O)COC[C@@H]2O1)Nc1ccc(-c2ccccc2)cc1 | 1
87 | C#Cc1cnc2[nH]c(=O)n(C(CC)CC)c2n1 | 12
88 | N#CCOCc1nnn2c1CN(S(=O)(=O)C1CC1)CCC2 | -3
89 | CN(Cc1ccc2c(c1)OCO2)Cc1nc(-c2cccnc2)no1 | 6
90 | CCOC(=O)c1nn(CC)c2c1CN(C(=O)Cn1nc(-c3ccccc3)c3ccccc3c1=O)CC2 | -7

Single values from the list.
no. 87 – Tgondii IFNg: 12
no. 66 – Tgondii IFNg: -2
no. 83 – Tgondii IFNg: 2

From entry 1 up to 2, as listed above:
entry | molecule | Tgondii IFNg
1 | COc1cccc(NC(=O)Cn2c(=O)cc(C(=O)N3CCCCC3)c3ccccc32)c1 | 3
2 | O=C1CCC2(CCCO2)CCN1Cc1ccc(C(F)(F)F)nc1 (stereo not given) | 2

Following part.
entry | molecule | Tgondii IFNg
91 | CN1C(=O)N(Cc2cccnc2)C(=O)C12CCN(Cc1nccs1)CC2 | -2
92 | CN1CCN(c2ccc(CNC(=O)c3csc4ccccc34)cc2)CC1 | -44
93 | CC[C@@H](Cn1ncc2ccccc2c1=O)NC(=O)c1nccc2ccccc12 | 0
94 | CC(C)COC1C2CCC1N(C(=O)c1cccn1C)C2 (stereo not given) | 3
95 | Cc1ccc(C)c(-c2[nH]ncc2CNC[C@@H]2CCNC[C@H]2O)c1 | 0
96 | Cc1ccc(C2(O)CCN(C(=O)c3ccccc3-n3cncn3)CC2)nc1 | -9
97 | Cc1nc(C)n(CC(=O)Nc2ccc3c(c2)N(C)C(=O)CO3)n1 | 15
98 | Cc1cc(C(=O)Nc2ccc3c(c2)CCC(=O)N3C)no1 | 193
99 | Cc1nc(C)n(CC(=O)NCC(c2ccccc2Cl)c2c[nH]c3ccccc23)n1 (stereo not given) | -17
100 | CN1C(=O)CCC12CCCN(C(=O)Cc1ccsc1)C2 (stereo not given) | -54
101 | C[C@@H]1CN([C@H](C)CO)C(=O)Cc2cc(NS(=O)(=O)c3ccc(F)cc3)ccc2O[C@@H]1CN(C)Cc1ccncc1 | 22
102 | Cc1ccsc1CN1C[C@@H](C(=O)N2CCCO2)C[C@@H]2OCC[C@@H]21 | 3
103 | Cc1ccc2c(c1C)-n1cccc1C1(CCN(S(=O)(=O)c3ccccc3Cl)CC1)N2 | 23
104 | Cc1nccn1-c1ccccc1CNC1CCC2(CCNCC2)CC1 | 3
105 | COCCN1CCc2ncc(CNC(=O)c3nccn3C)n2CC1 | 6
106 | N#Cc1c(SCC(=O)NCc2cccc(Cl)c2)sc2c(=O)[nH]c(=O)[nH]c12 | 85
107 | C[C@H]1CN([C@@H](C)CO)C(=O)c2c(c3ccccc3n2C)-c2ccccc2CO[C@@H]1CN(C)C | 4
108 | Cc1ccc2[nH]c3c(c2c1)CN(C)CC3 | 12
109 | COc1ccc(-c2ncnc3c2c(C(=O)Nc2ccc(C)nc2)c2ccccn23)cc1 | 39
110 | O=C(c1ccco1)N1CCN(Cc2cnn3cccnc23)CC1 | -2
111 | COc1ccc(C(N)CC(=O)N2CCc3c(ncnc3N(C)C)C2)cc1OC (stereo not given) | 2
112 | Cc1cc(C)cc(-c2ccc(C(N)=O)s2)c1 | -31
113 | COCCNC(=O)[C@]12CCO[C@H]1CCN(Cc1nccs1)C2 | 26
114 | CCc1nc(NC(=O)C2CCS(=O)(=O)C2)n[nH]1 (stereo not given) | -8
115 | O=C(COc1cc(O)c2c(=O)c3ccccc3oc2c1)OCc1ccccc1 | -10
116 | Cc1ccc(-c2cc(-c3ccccc3)nc(N3CCCC3)n2)cc1 | 29
117 | CNc1ncccc1C(=O)N[C@H]1C[C@H]2C(=O)N(C)CC(=O)N2C1 | -27
118 | O=C(NCCc1csc(-c2ccccc2)n1)C1CCN(C(=O)COc2ccccc2)CC1 | -46
119 | CS(=O)(=O)N1CCC2(COCc3cnc(N4CCOCC4)nc32)C1 (stereo not given) | -9
120 | Cc1oc(C(C)(C)C)cc1C(=O)Nc1ccc(SCc2cccc(Cl)c2F)cc1 | -75*
